Marburg entry inh – blocks Marburg virus binding to or entry into cells. 300,000 tested, 1.8% active. Potency, µM (doses to about 37.8 µM), without a hit: at the top dose activity change, negative = inhibition, usual class: inhibitors. Marburg virus pseudotyped entry inhibition, cell reporter; control for the full effect not named in the record; about a third of the inactives were read at about 46 µM; active = well fitted inhibition curve with a large enough effect; inconclusive = small, poorly fitted or top-dose-only effect, or effect the other way; inactive = flat fitted curve, though single readings scatter; tested in HEK293 cells; about a fifth of its hits are not listed in these tables; note: % is set by controls: 0 for no effect and ±100 for the full control effect; luciferase read-out
2A StopGo – lowers the luciferase signal of an FMDV 2A StopGo reporter; human cells with a luciferase reporter of 2A StopGo recoding; control for the full effect not named in the record; Potency, µM (series often up to 57.9 µM), for the others: at the top dose signal change, negative = less light; 410,000 tested, 1.2% active; active = well fitted falling curve with a large enough effect; inconclusive = small, poorly fitted or top-dose-only effect; inactive = no such curve, though single readings can be large or run the other way; tested in HEK293T cells; note: % is set by controls: 0 for no effect and ±100 for the full control effect; nearly all actives have a fitted effect of over 45% in size; luciferase light after 4 h
Cruzain noTriton – cruzain (T. cruzi) inhibition without detergent | P25779 | purified cruzain, Z-FR-AMC fluorescence, no detergent | Potency, µM, for the others: max response, negative = inhibition, most hits filed as inhibitors | 200,000 tested, 2.3% active;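 note: plate controls were enzyme without inhibitor for no effect and buffer without enzyme for full effect; nearly all actives have a fitted effect of over 40% in size; top concentration of the series not given in the record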
Target sequence (P25779 123-467 limits assumed): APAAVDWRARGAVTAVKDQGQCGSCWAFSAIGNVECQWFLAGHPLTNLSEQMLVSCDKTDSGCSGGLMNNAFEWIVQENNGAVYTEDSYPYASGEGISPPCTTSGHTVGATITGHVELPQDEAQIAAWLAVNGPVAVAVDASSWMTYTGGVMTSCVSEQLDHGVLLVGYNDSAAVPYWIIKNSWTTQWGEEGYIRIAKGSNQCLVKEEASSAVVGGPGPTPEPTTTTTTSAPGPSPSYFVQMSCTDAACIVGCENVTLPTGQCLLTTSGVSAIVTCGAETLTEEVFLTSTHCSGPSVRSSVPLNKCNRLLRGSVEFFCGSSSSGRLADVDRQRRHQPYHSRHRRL
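Purified cruzain at 1.5 nM, pre-incubated 15 min with compound at room temperature in 100 mM sodium acetate pH 5.5, 5 mM DTT, 0.00005% Triton X-100. Reaction started with 2 uM Z-FR-AMC; AMC fluorescence increase over 60 s gives rate.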
SARS PLpro yeast – SARS-CoV PLP inhibition in yeast | Potency, µM (top dose mostly 32.9 µM), inactives show at the highest dose activity, positive = growth rescue | S. cerevisiae expressing SARS-CoV PLpro, growth rescue; control for the full effect not named in the record | 330,000 tested, 0.19% active; active means well fitted rising curve with a large enough effect; inconclusive means small, poorly fitted or top-dose-only effect; inactive means no such curve, though single readings can be large or run the other way; note: 0% is about no effect; nearly all actives have a fitted effect of over 55% in size; growth read by luminescence after 48 h
Lassa entry inh – blocks Lassa virus binding to or entry into cells; 300,000 tested, 1.2% active; Potency, µM (highest dose often 37.9 µM), for the others: top-dose activity change, negative = inhibition, actives largely listed as inhibitors; AID 540256; Lassa virus pseudotype entry inhibition, cell reporter; control for the full effect not named in the record; active means well fitted inhibition curve with a large enough effect; inconclusive means small, poorly fitted or top-dose-only effect, or effect the other way; inactive means flat fitted curve, though single readings scatter; tested in HEK293 cells; note: % is set by controls: 0 for no effect and ±100 for the full control effect; nearly all actives have a fitted effect of over 50% in size; luciferase read-out
RE007 growth inh – less growth of the S. pombe RE007 Vpr strain; Potency, µM (highest dose often 92.2 µM), for inactives: top-dose activity change, negative = less growth; 360,000 tested, 0.21% active; S. pombe RE007 Vpr strain, BacTiter-Glo ATP luminescence, 24 h; control for the full effect not named in the record; active = well fitted falling curve with a large enough effect; inconclusive = small, poorly fitted or top-dose-only effect; inactive = no such curve, though single readings can be large or run the other way;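 note: % is set by controls: 0 for no effect and ±100 for the full control effect; nearly all actives have a fitted effect of over 50% in size; the assay follows cell death caused by Vpr and the record does not say whether a fall means rescue or toxicity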
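Fission yeast RE007 carrying one integrated HIV-1 vpr copy, seeded at OD 0.01 in PMG+AL medium with 23 nL pinned compound. Grown 24 h at 30 degrees; viability read by BacTiter-Glo luminescence after 5 min.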
NS1 inh – blocks influenza NS1 protein function; S. cerevisiae slowed by influenza A NS1, growth recovery by OD600; Potency, µM (series often up to 46.1 µM), inactives show top-dose activity, positive = more growth; 270,000 tested, 0.4% active; active means well fitted rising curve with a large enough effect; inconclusive means small, poorly fitted or top-dose-only effect; inactive means no such curve, though single readings can be large or run the other way; note: nearly all actives have a fitted effect of over 50% in size
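Recovery from NS1-induced slow growth read by OD600 in budding yeast switched to galactose assay medium (pH 6.0, -URA) at 1:100 dilution. Compound 23 nl per well; the matching strain lacking NS1 serves as control.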
Cruzain inh Det – cruzain (T. cruzi) inhibition with detergent; P25779; purified cruzain, Z-FR-AMC fluorescence, 0.01% Triton; Potency, µM, for the others: max response, negative = inhibition, usual class: inhibitors; 200,000 tested, 0.43% active; AID 1478;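 note: plate controls were neutral wells for no effect and buffer without enzyme for full effect; nearly all actives have a fitted effect of over 40% in size; top concentration of the series not given in the record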
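Cysteine protease activity tested under reducing, mildly acidic conditions (100 mM sodium acetate pH 5.5, 5 mM DTT) plus 0.01% Triton X-100. Cruzain 1.5 nM; substrate Z-FR-AMC 2 uM; 15 min compound preincubation at room temperature.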
Active calls of the source: *; ? = inconclusive; / = not tested or not shown; [ ] = remark or other dose. Unless noted, calls come from the whole dose curve; as a rule, active = well fitted curve in the direction sought with a large enough effect; inconclusive = small, poorly fitted or top-dose-only effect, or another doubt; inactive = no such curve, though single readings can be large; an effect the other way counts as inactive or inconclusive. Potency is the fitted concentration of half-maximal effect.

SMILES | Marburg entry inh | 2A StopGo | Cruzain noTriton | SARS PLpro yeast | Lassa entry inh | RE007 growth inh | NS1 inh | Cruzain inh Det
C=CCNC(=O)c1onc(CSc2cccc3ccccc23)c1C(=O)O | / | 2% | -21% | -9% | / | -13% | 11% | 2.0%
Cc1ccc(NC(=O)CSc2nnc3ccccn23)cc1S(=O)(=O)N1CCOCC1 | 1%[46.1 µM] | 17% | / | 5% | 3%[46.1 µM] | -27% | / | /
COC(=O)/C(=C(O)\C=C\c1ccccc1[N+](=O)[O-])c1nc2ccccc2[nH]1 | ? | -9% | / | -1% | -1%[46.1 µM] | 4% | -17% | /
Cc1cc(C2=NNC(=NC3CCCCC3)SC2)c(C)n1-c1c(C)n(C)n(-c2ccccc2)c1=O | -41% | -1% | 10% | 3% | 3% | -21% | / | -3.9%
CC(C)CC(NC(N)=O)C(=O)Nc1ccc(Oc2ccccc2)cc1 (stereo unspecified) | ? | -17% | / | 3% | 4%[46.1 µM] | 20% | / | /
COc1ccc(OCCn2cc(/C=C(\C#N)C(=O)NCc3ccco3)c3ccccc32)cc1 | 21% | ? | 13% | 13% | 0% | -2% | ? | -6.5%
Cc1c(C)n2c3c(cccc13)CC2 | 4%[46.1 µM] | -1% | / | -2% | 15% | 1% | / | /
CCN1CCN(S(=O)(=O)c2ccc(Cl)c(C(=O)Nc3nnc(CC(C)C)s3)c2)CC1 | -29% | 0% | 1% | -5% | -21% | 7% | 0% | 4.9%
Cc1sc(NC(=O)CSc2nnc(CCNC(=O)c3cccs3)n2C)nc1-c1ccccc1 | ? | 0% | ? | -13% | -13% | 13% | 13% | 0.3%
Cc1ccc2c(c1)C(c1ccccc1)N(C(=O)c1cc3ccccc3oc1=O)CC(=O)N2 (stereo unspecified) | -7% | 31%[activator] | -6% | -6% | 0% | 5% | -12% | -0.2%
CCOC(=O)C1(CCOC)CCN(Cc2ccccc2-c2ccco2)CC1 | ? | -12% | / | 0% | -12%[46.1 µM] | -7% | 3% | /
Cn1c(=O)n(C)c2cc([N+](=O)[O-])c(N3CCN(S(=O)(=O)c4ccc5ccccc5c4)CC3)cc21 | ? | / | 3% | 7% | -29% | 8% | 6% | 1.4%
O=C(C1CCCC1)N1CCCC(Nc2ccc(F)cc2)C1 (stereo unspecified) | / | 0% | / | 2% | / | -2% | -2% | /
c1coc(-c2nnc(-c3ccc4c(c3)OCO4)o2)c1 | / | / | 13% | 2% | / | / | -24% | -14%
Cc1cc(C)c(C)c(S(=O)(=O)N2CCN(Cc3nc4ccccc4[nH]3)CC2)c1C | -11% | -30% | 2% | 2% | 22%[14.3 µM] | -11% | 18% | 0.8%
O=C(CSc1ccc2ccccc2c1)NCc1cccs1 | 0% | 31%[activator] | 7% | -6% | -9% | 1% | -8% | -6.1%
O=C1CN(C(=O)c2ccccc2C(F)(F)F)C(c2ccccc2)c2cc(F)ccc2N1 (stereo unspecified) | 14%[46.1 µM] | -2% | 6% | / | 16%[46.1 µM] | / | / | -3.2%
COc1cccc(NC(=O)Cn2c(=O)n(-c3ccc(C)cc3)c(=O)c3ccc(C(=O)NCc4ccco4)cc32)c1 | -24%[46.1 µM] | 5% | 8% | / | -29%[46.1 µM] | / | / | -0.2%
COCC(C)N1CC(O)=C(c2nc(-c3ccc(Cl)cc3)cs2)C1=N (stereo unspecified) | 16%[46.1 µM] | -24% | / | 2% | ? | 9% | 3% | /
CCOc1cc(N2CCOCC2)c(OCC)cc1NC(=O)c1cc(S(=O)(=O)N2CCOCC2)ccc1F | ? | -1% | / | 1% | -27% | 23% | / | /
CC(=O)Nc1ccc2sc(NC(=O)CN3CCOCC3)nc2c1 | 5%[46.1 µM] | 14% | / | 5% | -2%[46.1 µM] | 5% | 17% | /
CC(=O)N1CCN(c2nnc(-c3ccc(C)cc3)c3ccccc23)CC1 | ? | -6% | / | 0% | ? | -1% | -7% | /
O=S(=O)(Nc1nc2ccc(Cl)cc2s1)c1cccs1 | 7%[46.1 µM] | 73%[activator] | / | 2% | 17%[46.1 µM] | 3% | 0% | /
N#Cc1ccccc1Cn1nnc2c(=O)[nH]c(C3CCCN(S(=O)(=O)c4ccc(F)cc4)C3)nc21 (stereo unspecified) | 11%[46.1 µM] | -17% | -4% | / | 8%[46.1 µM] | / | / | 6.1%
Cc1cccc(Nc2nc(N)c(C#N)c(CC#N)c2C#N)c1 | ? | -24% | -7% | -5% | 1% | -2% | 28% | -5.7%
CCCCNC(=O)c1cccc(NC(=O)c2nsc3ccccc23)c1 | / | 25% | -7% | / | -7%[46.1 µM] | / | / | -0.4%
CN(C)CCN(Cc1ccco1)S(=O)(=O)c1cc2c(cc1Cl)NC(=O)CO2 | / | 4% | 19% | / | -2%[46.1 µM] | / | / | 2.0%
Cc1cccc(N(CC(=O)NCCc2ccccc2)C(=O)c2csnn2)c1 | -3%[46.1 µM] | 3% | / | 3% | 10%[46.1 µM] | 6% | -11% | /
OCCN1CCN(c2cc(-c3ccccc3)c3ccccc3n2)CC1 | ? | ? | -10% | 6% | -6% | 5% | -6% | -0.1%
CC(C)(C)NC(=O)Cn1c(SCC(N)=O)nc2ccccc21 | -1% | -13% | 1% | 7% | 17% | 0% | 2% | 2.3%
CCOC(=O)C1C(=O)OC(C)(C)C1C(C)C(=O)c1ccccc1 (stereo unspecified) | 3% | 3% | 5% | 9% | ? | -1% | ? | 6.6%
COc1ccc(OC)c(Nc2ncnc3ccccc23)c1 | ? | 16% | 1% | 0% | 12% | 1% | -8% | 0.0%
Cc1cc(Cl)c(S(=O)(=O)N2CCN(c3ccccn3)CC2)cc1OCC(=O)NC1CCCCC1 | / | 22µM* | / | -1% | / | -16% | -34% | /
O=C(O)c1ccccc1-c1nc2ccccc2c(=O)[nH]1 | 5% | 8% | -7% | 7% | 17% | 10% | 2% | 2.7%
CCCCCCCCC(=O)NNC(=O)c1c(O)c2ccccc2n(CC)c1=O | ? | -15% | / | 2% | ? | -21% | -2% | /
CN1C(=O)Cc2cc(S(=O)(=O)NCc3ccc(Cl)cc3)ccc21 | / | 10% | -7% | / | 7%[46.1 µM] | / | / | -1.2%
CCc1cccc(NC(=O)Cn2ncn3c(cc4ccccc43)c2=O)c1 | -1% | / | -14% | 10% | 17% | 6% | 2% | 3.3%
CCOC(=O)c1[nH]c(=O)[nH]c1CSc1ccccn1 | ? | 1% | -10% | -7% | 10% | -26% | -3% | 0.8%
Cc1ccc(CSc2sc(C(=O)c3ccccc3)c(N)c2C#N)cc1 | -30%[46.1 µM] | 0% | 20µM* | 2% | ? | -7% | -3% | -0.7%
Cn1nnnc1SCCNC/C=C/c1ccccc1 | 2% | 3% | 4% | -1% | -29%[14.3 µM] | -9% | 9% | -1.2%
COc1ccc(OCC(O)CNC(=O)Nc2cc(C)cc(C)c2)cc1 (stereo unspecified) | / | 4% | / | 0% | / | 0% | -6% | /
O=S(=O)(Nc1cccnc1)c1ccc2c(c1)OCCO2 | 2% | 25% | ? | 3% | -4% | -6% | -12% | -3.5%
CC(C)c1ccccc1NC(=O)COC(=O)c1cccnc1 | -6%[46.1 µM] | 6% | / | 2% | 17% | 4% | -7% | /
CN1CCN(C(N)=NC(=O)c2ccccc2)CC1 | -17% | 16% | -4% | -10% | 17% | 7% | 0% | ?
Cc1ccc(S(=O)(=O)n2nc(-c3cccnc3)nc2N)cc1 | 8% | -6% | -6% | -2% | ? | -6% | -6% | 2.9%
CC1CN(C(=O)C2CCCN2S(=O)(=O)c2ccc(Cl)cc2)CC(C)O1 (stereo unspecified) | 19% | 12% | 9% | 3% | 13% | 4% | -4% | 6.4%
COc1ccc(NS(=O)(=O)c2cccc(C(=O)N3CCN(Cc4cc(OC)ccc4OC)CC3)c2)cc1 | -9%[46.1 µM] | -18% | / | 0% | ? | -5% | -24% | /
CN(C)C(=O)Oc1c(Cl)cc(Cl)c2ccccc12 | 7% | -22% | -9% | -7% | 7% | 7% | -10% | 0.5%
COc1ccc([N+](=O)[O-])cc1/C=N/Nc1nc(N2CCCCC2)nc(N2CCCCC2)n1 | 2%[46.1 µM] | ? | / | 2% | -3% | -4% | / | /
N#Cc1cccc(C(=O)N(CCc2ccccc2)Cc2cccs2)c1 | 2%[46.1 µM] | -4% | / | -2% | ? | ? | -29% | /
COc1ccc(-c2nnc(SCC(=O)c3cccs3)o2)cc1 | 7% | 37%[activator] | -20% | -10% | -28% | 11% | -19% | -7.1%
Cc1nn(Cc2c(F)c(F)c(F)c(F)c2F)c(C)c1NC(=O)c1c([N+](=O)[O-])cnn1C | 10% | -25% | -8% | -1% | 14% | 5% | -1% | -1.3%
Cc1ccccc1NC(=O)CC1SC(=O)N(c2ccccc2)C1=O (stereo unspecified) | 21% | -6% | -11% | -14% | 2% | ? | ? | ?

Entries from the list above with a cyano group, in the order listed:
SMILES | Marburg entry inh | 2A StopGo | Cruzain noTriton | SARS PLpro yeast | Lassa entry inh | RE007 growth inh | NS1 inh | Cruzain inh Det
COc1ccc(OCCn2cc(/C=C(\C#N)C(=O)NCc3ccco3)c3ccccc32)cc1 | 21% | ? | 13% | 13% | 0% | -2% | ? | -6.5%
N#Cc1ccccc1Cn1nnc2c(=O)[nH]c(C3CCCN(S(=O)(=O)c4ccc(F)cc4)C3)nc21 (stereo unspecified) | 11%[46.1 µM] | -17% | -4% | / | 8%[46.1 µM] | / | / | 6.1%
Cc1cccc(Nc2nc(N)c(C#N)c(CC#N)c2C#N)c1 | ? | -24% | -7% | -5% | 1% | -2% | 28% | -5.7%
Cc1ccc(CSc2sc(C(=O)c3ccccc3)c(N)c2C#N)cc1 | -30%[46.1 µM] | 0% | 20µM* | 2% | ? | -7% | -3% | -0.7%
N#Cc1cccc(C(=O)N(CCc2ccccc2)Cc2cccs2)c1 | 2%[46.1 µM] | -4% | / | -2% | ? | ? | -29% | /

High-throughput results as filed in PubChem BioAssay.

Rows are unselected (roughly 4.7% active in at least one column).
